HCMV UL50-53 inh: disrupts HCMV UL50-UL53 complex binding. HTRF UL50-UL53 interaction, normalized percent inhibition. inhibition, % (concentration not given with the values). 0.15% of 190,000 active. AID 1918969;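 active = both replicates at 50% or more, plus weaker picks with an unusually low signal ratio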;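 note: stock transfer was 100 nL into about 20 µL; 0% = negative control wells and 100% = wells with untagged competitor protein; inactives centre near -12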
Sa growth inh: S. aureus growth inhibition | 0.53% of 170,000 active | S. aureus RN4220 growth, OD600, 20 h, 42 °C; stronger effect = lower value | relative growth, % (test concentration not listed);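 active = growth at 42 °C up to 50% and 20 or more points under that at 30 °C, or under 10% at both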;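 note: 300 nL library stock went into each well; scaled to the means of positive and negative controls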
GIV Gai3 FP: GIV-Galpha-i interaction inhibition; 0.42% of 210,000 active; AID 1224905; P08753; Galpha-i3/FITC-GIV peptide fluorescence polarization, 90 min; stronger effect = lower value; scaled: aluminum fluoride 0%, vehicle 100%; percent of control (FP), % (concentration not given with the values);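 active = replicate mean at 85% of control or lower, very high polarization wells dropped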;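 note: wells of about 15 µL received 100 nL stock; the first replicate is given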
Target sequence (P08753 whole entry, looked up): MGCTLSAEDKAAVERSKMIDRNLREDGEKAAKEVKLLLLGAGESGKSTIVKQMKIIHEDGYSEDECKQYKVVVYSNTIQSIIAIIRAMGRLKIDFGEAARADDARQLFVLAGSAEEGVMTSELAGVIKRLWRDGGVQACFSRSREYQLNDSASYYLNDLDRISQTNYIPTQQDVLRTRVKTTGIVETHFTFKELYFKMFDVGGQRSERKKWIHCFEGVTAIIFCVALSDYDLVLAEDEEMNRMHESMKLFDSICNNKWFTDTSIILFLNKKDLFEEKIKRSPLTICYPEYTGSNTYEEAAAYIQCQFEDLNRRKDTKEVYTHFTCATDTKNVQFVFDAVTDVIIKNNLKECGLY
Sa growth inh second temp: second read-out of Sa growth inh, no call of its own (marks repeat the call); relative growth, %; measured here: growth at 30 °C;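 optical density after 20 h as mean of two plates; 100% = untreated growth and lower means inhibition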
* hit, by the source's call; . = not tested or not shown; & = joins results of further samples. Hits appear at their usual frequency, and some 0.85% of all compounds hit somewhere here.

SMILES	HCMV UL50-53 inh	Sa growth inh	Sa growth inh second temp	GIV Gai3 FP
O=C(Nc1ccc(NC(=O)c2cc3ccccc3o2)cc1)c1ccccc1	-39	105	84	102
CC(C)(C)OC(=O)N1CCC(CNS(=O)(=O)c2cc(Cl)sc2Cl)CC1	-4	120	93	105
Cc1oc2ccc(O)c(CN(C)Cc3ccccc3)c2c1C(=O)Nc1cccc(Cl)c1C	4	94	94	107
CC(=O)OC1=CN(Cc2ccccc2)S(=O)(=O)c2ccccc21	-24	94	77	101
Nc1nc(F)cc(NCCO)n1	14	.	.	108
O=C(NCCC(=O)N1CCN(c2ccc(F)cc2)CC1)c1ccco1	-31	103	98	.
CCn1c(SCC(=O)c2ccccc2)nc2sc3c(c2c1=O)CCC3	.	99	79	102
C=CCn1c(=S)oc2ccccc21	-14	102	79	97
Cc1ccn(S(=O)(=O)c2ccccc2)n1	18	91	102	106
CCN(Cc1ccccc1)C(=O)CCc1nc(-c2ccc(C)cc2)no1	3	91	96	104
COc1cccc(Cn2c(CNC(=O)C(C)C)nc3cccnc32)c1	.	107	85	107
COC(=O)C1C2C=CC(C2)C1C(=O)Nc1ccccc1 (stereo not drawn)	-12	113	81	102
Cc1c(Cl)cccc1NC(=O)CSc1nc(=O)[nH]c2c1CCCC2	.	101	95	96
O=C(COc1ccc(Cl)cc1)OCc1ccc(Br)cc1	-9	119	91	.
Nc1nnc(SCC(=O)C2CC2)s1	-22	119	97	103
O=C(Cn1cc(C(=O)c2ccncc2)c(=O)c2cc(Cl)ccc21)NC1CCCCC1	4	.	.	102
Cc1nc(-c2cccc(F)c2)sc1CCNC(=O)COc1ccccc1F	4	.	.	100
COC(=O)c1ccc(COc2ccc3c(c2)OCO3)cc1	-1	93	90	.
Cn1cnc2c(=O)oc3ccc(S(=O)(=O)N4CCN(c5ccccc5F)CC4)cc3c21	.	110	96	104
COC(=O)C1CC(=O)N(Cc2ccccc2)C1 (stereo not drawn)	-12	.	.	101
O=C(COc1ccccc1)Oc1cccc(-n2cnnn2)c1	-10	.	.	99
O=C(N/N=C/c1ccccc1C(F)(F)F)c1ccco1	-13	98	94	109
CCCCNC(=O)C1CCN(Cc2nc(-c3ccc(Cl)cc3)oc2C)CC1	-14	81	79	106
CN(C)CCNC(=O)c1ccc(CN2CC(=O)N3CSCC3C2=O)cc1 (stereo not drawn)	-4	.	.	104
Cc1cccc(C)c1NC(=O)C(c1ccc(F)cc1)N1C(=O)CC1c1ccco1 (stereo not drawn)	-14	78	82	105
The list goes on:
SMILES	HCMV UL50-53 inh	Sa growth inh	Sa growth inh second temp	GIV Gai3 FP
O=C(Cn1ccc2cc(S(=O)(=O)N3CCCCCC3)ccc21)NCc1ccccc1Cl	.	94	100	108
Cc1sc2c(c1C)CSC(C(=O)NCCc1c[nH]c3ccccc13)=C2	-10	.	.	105
CCc1nnc(NC(=O)COC(=O)CN2C(=O)c3ccccc3C2=O)s1	-6	93	90	99
CC(=O)Nc1ccc(NC(=O)C(NC(=O)C2CCCCC2)C(C)C)cc1 (stereo not drawn)	-22	86	87	101
O=C(O)c1ccccc1C(=O)NC1CCCCNC1=O (stereo not drawn)	-32	107	94	99
CCc1ccccc1N1C(=O)NC(=O)/C(=C\c2ccc(N(CC)CC)o2)C1=O	-74	101	99	-59*
CCN=C1NN=C(c2c[nH]c3ccccc23)CS1	-72	88	96	.
CCN(CC)Cc1cccc2c1COC2	-3	106	88	104
CCOC(=O)c1[nH]c2ccc(OC)cc2c1NC(=S)N1CCOCC1	.	102	88	103
CN(C(=O)CSc1nc2ccccc2n1CC(=O)N(C)C1CCCCC1)c1ccc(F)cc1	.	118	97	99
CCC(=O)NCC1(N2CCOCC2)CCCCC1	-26	.	.	102
COc1cc(F)nc(N)n1	-12	104	92	103
CCOC(=O)C1=C(CN2C(=O)c3ccccc3S2(=O)=O)NC(=O)NC1c1ccc(OC)cc1 (stereo not drawn)	-24	90	82	.
CCOC(=O)c1ccc(NC(=O)c2nc(SCc3ccc(F)cc3)ncc2Cl)cc1	6	108	95	110
O=S1(=O)CCC(S(=O)(=O)N2CCCCC2)C1 (stereo not drawn)	-3	110	55	103
CC1(C)CC(=NO)CC(C)(C)N1	-37	86	86	105
COC(=O)c1c(NC(C)=O)c2c(C)c(C)sc2n1CC(=O)N(C)c1ccccc1	0	.	.	109
Cc1ccc(CNC(=O)Nc2cc(C(=O)NCc3ccc(C(C)C)cc3)ccc2N2CCCC2)cc1	.	88	88	101
CCn1c(=O)c(-c2noc(C(=O)NCc3ccccn3)n2)nn(-c2ccccc2)c1=O	-138	.	.	103
CNC(=O)c1cccc(NC(=O)C2=CSCCO2)c1	-44	88	91	99
Cc1ccc(-c2cc(C(=O)Oc3ccccc3)c3cccc(C)c3n2)cc1	-12	105	104	114
COc1ccc(-n2ccnc(NCc3ccccc3Cl)c2=O)cc1OC	.	93	87	101
COc1cc(C(=O)NCCC(=O)NC2CCCCC2)cc(OC)c1OC	-6	88	89	100
CO[C@@H]1[C@@H](OC(N)=O)[C@@H](O)[C@H](Oc2ccc3c(O)c(NC(=O)c4ccc(O)c(CC=C(C)C)c4)c(=O)oc3c2C)OC1(C)C	-7	-0.8*	-0.5*	.
N#C/C(=C\c1cc(Cl)sc1Cl)S(=O)(=O)c1ccccc1	-2	100	95	110
(listing goes on)
SMILES	HCMV UL50-53 inh	Sa growth inh	Sa growth inh second temp	GIV Gai3 FP
Cc1cccc(S(=O)Cc2ccc(C(=O)NC3CCCC3)o2)c1 (stereo not drawn)	-37	90	83	106
CCOC(=O)c1ccc(NC(=O)CCCc2nc(-c3ccccc3Cl)no2)cc1	-7	97	84	102
CC(C)NC(=O)C1CCN(c2nc3ccccc3nc2C(F)(F)F)CC1	.	90	95	106
Cc1ccc(C)n1-c1ccc(Oc2ccc(Br)cc2)cc1	.	119	107	116
COc1ccc(C2CC(=O)Nc3cc4c(cc32)OCO4)cc1 (stereo not drawn)	-3	96	82	.
Oc1ccccc1-c1nnc2n1CCCCC2	-34	98	96	.
Cc1ccc(-n2nc(C)c3c(C)cc(=O)n(CC(=O)Nc4ccc(C(C)C)cc4)c32)cc1	.	99	99	107
O=C(O)CCCSc1nccn1-c1ccccc1	-8	.	.	98
CC(=O)NC(C(=O)c1ccccc1)N1CCCCC1 (stereo not drawn)	-19	89	79	103
CSc1ccc(C2C3=C(CCCC3=O)Nc3ccc4ccccc4c32)cc1 (stereo not drawn)	-7	102	70	.
CN1CCN(S(=O)(=O)c2ccc(Br)c3ccccc23)CC1	-52	88	85	98
COc1ccc(N2CCN(C(=O)c3cn(C)c4ccc(S(=O)(=O)N5CCOCC5)cc4c3=O)CC2)cc1	-24	94	97	103
Cc1sc2ncn(CC(=O)NCc3ccccn3)c(=O)c2c1S(=O)(=O)N1CC(C)CC(C)C1 (stereo not drawn)	-32	88	85	103
CC(C)(C)OC(=O)N1CCC[C@H]1C(=O)OCc1cc(=O)n2cc(Br)ccc2n1	-46	102	88	.
Cc1ccc2nc(CNC(=O)Cn3cnc(S(=O)(=O)N4CCCC4)c3)[nH]c2c1	-8	.	.	106
Cc1oc2cc(OCC(=O)O)ccc2c(=O)c1-c1ccc2c(c1)OCCO2	-2	102	94	104
Cc1ccc(S(=O)(=O)Cc2noc(CCC(=O)O)n2)cc1	-13	.	.	95
CC(=O)N1c2ccc(S(=O)(=O)NCC3CCC(C(=O)N4CCC(C)CC4)CC3)cc2CC1C (stereo not drawn)	-11	.	.	104
CCCNC(=O)NCc1n[nH]c(=O)c2ccccc12	1	110	99	109
N#Cc1ccc(NC(=O)COC(=O)CN2CSCC2=O)cc1	-14	83	86	.
CCCCc1c(-c2ccccc2)nc(N)c(C#N)c1-c1ccc(O)c(OC)c1	-1	106	90	.
Cn1c(SCc2cc(=O)[nH]c(=O)[nH]2)nnc1C(F)(F)F	-24	97	86	102
COc1ccc(CCNC(=O)COc2cc(=O)n(C)c3ccccc23)cc1OC	.	81	88	104
COC(=O)c1snc(-c2ccc(F)cc2)c1N	-87	.	.	98
CCCCN(Cc1ccco1)C1=NC(Cc2ccccc2)C(=O)N1c1ccc(C)cc1C (stereo not drawn)	-5	81	56	101

5 entries from above, with bars between the fields:
compound | HCMV UL50-53 inh | Sa growth inh | Sa growth inh second temp | GIV Gai3 FP
Oc1ccccc1-c1nnc2n1CCCCC2 | -34 | 98 | 96 | .
Cc1ccc(-n2nc(C)c3c(C)cc(=O)n(CC(=O)Nc4ccc(C(C)C)cc4)c32)cc1 | . | 99 | 99 | 107
O=C(O)CCCSc1nccn1-c1ccccc1 | -8 | . | . | 98
CC(=O)NC(C(=O)c1ccccc1)N1CCCCC1 (stereo not drawn) | -19 | 89 | 79 | 103
CSc1ccc(C2C3=C(CCCC3=O)Nc3ccc4ccccc4c32)cc1 (stereo not drawn) | -7 | 102 | 70 | .

The listing continues:
SMILES	HCMV UL50-53 inh	Sa growth inh	Sa growth inh second temp	GIV Gai3 FP
O=C(NCC(=O)N1CCc2ccccc21)c1ccc(-c2noc(C3CCCC3)n2)cc1	-36	.	.	106
O=C(NC1(C(F)(F)F)NC(=O)N(c2ccc(F)cc2)C1=O)c1ccco1 (stereo not drawn)	-15	106	98	108
CCc1ccc(C(=O)N2CCCC(c3cccc(C(=O)N4CCN(c5ccccn5)CC4)c3)C2)cc1 (stereo not drawn)	5	.	.	105
Cc1ccc2oc(-c3ccc(N(C)C)cc3)cc(=O)c2c1	-66	83	78	.
CCOC(=O)C1=C(C)N=c2s/c(=C\c3cc([N+](=O)[O-])ccc3N3CCOCC3)c(=O)n2C1c1cccs1 (stereo not drawn)	-9	.	.	99
COc1cc(CNC(C)(C)C)ccc1OCC(=O)NC(C)(C)C	.	108	91	102
CN(C)c1ccc(C(=C2C=CC(=[N+](C)C)C=C2)c2ccc(N(C)C)cc2)cc1	-287	171	152	.
CC(O)c1ccccc1-c1ccccc1C(C)O (stereo not drawn)	-12	106	88	103
CCN(CC)C(=O)Sc1cccc2cccnc12	.	102	95	96
Cc1cc(=O)[nH]c2nnc(SCCC(C)C)n12	.	84	90	92&100
Cc1nc2sc3c(c2c(=O)n1N)CCCC3	-20	98	91	.
c1ccc(-n2ncc3c(SCCC4OCCO4)ncnc32)cc1	0	117	101	108

Complete entries, looked up by structure.
`Cc1ccc2oc(-c3ccc(N(C)C)cc3)cc(=O)c2c1` in the list: HCMV UL50-53 inh = -66; Sa growth inh = 83; Sa growth inh second temp = 78; GIV Gai3 FP = .
`CC(O)c1ccccc1-c1ccccc1C(C)O` (stereo not drawn) in the list: HCMV UL50-53 inh = -12; Sa growth inh = 106; Sa growth inh second temp = 88; GIV Gai3 FP = 103
`Cc1cc(=O)[nH]c2nnc(SCCC(C)C)n12` in the list: HCMV UL50-53 inh = .; Sa growth inh = 84; Sa growth inh second temp = 90; GIV Gai3 FP = 92&100
